TRPML1 blocker = blocks the human TRPML1 channel; Q9GZU1; TRPML1-inducible cells, Ca2+ dye fluorescence, FDSS; stronger effect = lower value; inhibition of EC80 agonist-evoked calcium signal; activity change, negative = inhibition, % (no concentration beside the values); 390,000 compounds, 0.02% hits; AID 624415; in the data active means activity change below about -50%; inconclusive means about -30% to -50%; inactive means above about -30%;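 note: stimulus is agonist 54-4 at its EC80 concentration; % is set by controls: 0 for no effect and ±100 for the full control effect; compound concentration not given in the record; the text of the record puts the active cut at -80%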
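Tet-induced TRPML1-DL cells loaded with Ca8 no-wash calcium dye were read kinetically on FDSS. Compound addition was followed by EC80 agonist 54-4 (4 uM final); inhibition was read over 110 s.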
gsp antag = antagonizes gsp, the McCune-Albright syndrome mutation; gsp-mutant cells, cAMP HTRF, 30 min; control for the full effect not named in the record; Potency, µM (titrated, usually from 76.9 µM), without a hit: top-dose activity change, negative = inhibition, most hits filed as inhibitors; 340,000 compounds, 0.4% hits; AID 624288; active = falling curve of any shape with a large fitted effect; inconclusive = falling curve, mostly with a smaller effect; inactive = flat or rising curve; cell line not stated here;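 note: intracellular cAMP measured with PDE inhibitor Ro 20-1724 present during compound exposure; potency is the fitted concentration of half-maximal effect; % is set by controls: 0 for no effect and ±100 for the full control effect; nearly all actives have a fitted effect of over 65% in size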
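Cells, 2000/well, grown 16–24 h in DMEM 10% FBS with 0.5 mg/ml G418, then compounds plus […] (300 uM addition stock), 30 min at 37C. cAMP read by HTRF (cAMP-d2 and anti-cAMP antibody-K in lysis buffer) after 30 min RT.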
gsp ag = activates gsp, the McCune-Albright syndrome mutation; gsp mutant cells, cAMP HTRF, 30 min; control for the full effect not named in the record; Potency, µM (titrated, usually from 76.9 µM), for inactives: at the top dose activation (cAMP increase), usual class: activators; 340,000 compounds, 0.13% hits; AID 624287; active = well fitted activation curve with a large enough effect; inconclusive = small, poorly fitted or top-dose-only effect, or another doubt; inactive = no such curve, though single readings can be large or run the other way; cell line not stated here;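 note: phosphodiesterase inhibitor Ro 20-1724 added with compounds to block cAMP breakdown; potency is the fitted concentration of half-maximal effect; nearly all actives have a fitted effect of over 60% in size; about a fifth of the inactives were tested at one dose only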
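Cells stably selected in G418 were plated at 2000/well, grown 16-24 hr, then given compounds in DMSO with the PDE inhibitor […] (300 uM solution added) for 30 min at 37C; cAMP was read by HTRF.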
Sfp PPTase inh = blocks B. subtilis Sfp PPTase activity. Q9F4F7. Biochemical Sfp PPTase activity, qHTS. Potency, µM, without a hit: max response, negative = inhibition, hits mostly inhibitors. 310,000 compounds, 3.5% hits. AID 1490; active = well fitted inhibition curve with a large enough effect; inconclusive = small, poorly fitted or top-dose-only effect, or another doubt; inactive = no such curve, though single readings can be large or run the other way;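 note: the enzyme is Sfp with the accession as filed and its product quenches rhodamine fluorescence; potency is the fitted concentration of half-maximal effect; 0% = enzyme reaction without inhibitor and -100% = no enzyme wells; top concentration of the series not given in the record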
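Fluorescence-quenching assay: 15 nM Sfp-PPTase preincubated 15 min at room temperature with compound, then 5 uM rhodamine-CoA and 12.5 uM BHQ-2-labelled YbbR peptide added. Fluorescence (ex 525/em 598 nm) read at start and after 30 min; difference gives rate.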
Menin-MLL FL inh = menin-MLL binding inhibition, fluorescein peptide; Fluorescence polarization, fluorescein-MLL peptide displacement from menin; FP activity change, % at 61.4 µM; 290,000 tested, under 10 active; AID 1766; inconclusive = falling polarisation curve, or a change in total fluorescence; inactive = total fluorescence flat and polarisation flat or rising; no compound was filed as active; the % refers to the polarisation; negative = inhibition;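 note: % of control where 0% means no effect; inhibitors lower the polarisation; unlabelled MLL peptide was the positive control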
TRPV1 potentiator = potentiators of human vanilloid receptor 1 (TRPV1) | Q8NER1 | TRPV1-expressing cells, Fluo-8 calcium influx, capsaicin EC20 potentiation; host cell line not named in the record; control for the full effect not named in the record | potentiation, % at 8.33 µM | 320,000 compounds, 0.02% hits | AID 540277; active means potentiation above 80%; inconclusive means 30% to 80%; inactive means below 30%; note: 0% is about no effect
Target sequence (Q8NER1 whole entry, looked up): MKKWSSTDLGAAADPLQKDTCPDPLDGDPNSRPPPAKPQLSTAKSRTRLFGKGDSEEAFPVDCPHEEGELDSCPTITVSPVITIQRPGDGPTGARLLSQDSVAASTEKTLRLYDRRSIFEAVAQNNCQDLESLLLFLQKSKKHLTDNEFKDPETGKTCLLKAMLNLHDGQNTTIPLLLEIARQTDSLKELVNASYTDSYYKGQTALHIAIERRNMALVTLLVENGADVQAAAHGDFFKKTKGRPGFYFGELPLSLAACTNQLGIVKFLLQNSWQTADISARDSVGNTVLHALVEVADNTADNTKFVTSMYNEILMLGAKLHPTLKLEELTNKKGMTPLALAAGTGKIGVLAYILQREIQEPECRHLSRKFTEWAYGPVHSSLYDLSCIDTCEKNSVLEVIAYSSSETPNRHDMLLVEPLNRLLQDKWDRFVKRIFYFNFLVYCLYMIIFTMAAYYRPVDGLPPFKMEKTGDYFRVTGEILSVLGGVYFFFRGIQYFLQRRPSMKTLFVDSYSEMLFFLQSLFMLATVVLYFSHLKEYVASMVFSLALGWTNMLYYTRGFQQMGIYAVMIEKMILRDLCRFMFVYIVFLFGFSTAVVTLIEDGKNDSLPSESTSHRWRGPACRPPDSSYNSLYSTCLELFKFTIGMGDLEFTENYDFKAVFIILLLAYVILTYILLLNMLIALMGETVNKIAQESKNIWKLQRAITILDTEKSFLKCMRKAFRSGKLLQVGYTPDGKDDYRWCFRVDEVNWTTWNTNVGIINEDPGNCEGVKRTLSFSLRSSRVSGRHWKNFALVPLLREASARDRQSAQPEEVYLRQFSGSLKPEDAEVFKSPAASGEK
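Cells expressing TRPV1 were dye-loaded with Fluo-8 and read kinetically: 10 s baseline, 3 min after compound (agonist portion), then 2 min after EC20 capsaicin (allosteric enhancer portion). Calcium-bound dye fluorescence at 480/520 nm.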
ClpP mod = qHTS Assay for Activators of ClpP. purified B. subtilis ClpP, FRET peptide cleavage, 20 min. Potency, µM (doses to about 57.5 µM), for the others: top-dose activity change, negative = active. 340,000 compounds, 1.9% hits; active = well fitted falling curve with a large enough effect; inconclusive = small, poorly fitted or top-dose-only effect; inactive = no such curve, though single readings can be large or run the other way; note: potency is the fitted concentration of half-maximal effect; the source files actives as falling curves though it sought activators and does not explain the sign; nearly all actives have a fitted effect of over 65% in size; many hits overshoot -100%
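ClpP 10 microg/mL final, pH 8 Tris/KCl buffer with BSA, glycerol, Tween-20; compound pinned in; FRET-FV substrate; RT 20 min; Ex320/Em430; ΔFRET vs ADEP 5.8 microM, DMSO, no enzyme.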
The depositor's hits bear a star; ? = inconclusive; . = no result given; [ ] = another dose, or the depositor's remark. Compounds as they come (roughly 4.9% active in at least one column).

SMILES	TRPML1 blocker	gsp antag	gsp ag	Sfp PPTase inh	Menin-MLL FL inh	TRPV1 potentiator	ClpP mod
O=S(=O)(NCc1ccccc1)c1ccc(Cl)c(S(=O)(=O)NCc2ccccc2)c1	2	-7%	?	0%	-0.5	11	0.6%
Cc1ccc(OCC(=O)N2CCc3ccccc3C2)c(C)c1	62	-3%	6%[15.4 µM]	-11%	0.5	-10	0.6%
O=C1Nc2ccccc2C1Cc1ccccn1 (centres undefined)	8	7%	-3%[15.4 µM]	-7%	-1.0	3	-0.8%
CCC(Sc1nc2ccccc2s1)C(=O)Nc1nnc(C)s1 (centres undefined)	13	-30%	-8%	7%	-0.4	21	-1.3%
O=C(c1cc2nc(-c3ccco3)cc(C(F)(F)F)n2n1)N1CCc2ccccc2C1	-2	4%	12%	-21%	7.1	2	-26%
C/C(=N/O)c1cccc(N2Cc3ccccc3C2)c1	-26	-20%	14%	10%	7.5	7	.
Cc1cc(OCc2cc(C(=O)NC3CCC3)no2)cc(C)c1Cl	6	-3%	1%	1%	-0.8	-11	-2.7%
Cc1cc(=O)oc2cc(OCC(=O)N/N=C/c3ccccc3[N+](=O)[O-])ccc12	-5	-15%	-14%[15.4 µM]	?	-0.7	11	-3.4%
CCN(CC(=O)NCc1cccs1)C(=O)c1cc(=O)[nH]c2ccccc12	29	1%	25%	.	.	.	-27%
Cc1c(CC(=O)N[C@H](C(=O)O)C(C)C)c(=O)oc2cc3c(cc12)CCC(C)(C)O3	4	4%	30%	6%	-1.1	-1	.
O=C(Nc1ccccc1)c1ccc(-c2ccc([N+](=O)[O-])cc2)o1	-13	-14%	-20%	50µM*	-12	-8	.
CCOC(=O)c1c(N2C(=O)C=CC2=O)sc(C)c1C	13	10%	-8%	2.5µM*	-1.9	-1	0.3%
O=C(Nc1nnc(-c2ccc(Cl)cc2)o1)c1nc2ccccc2s1	-16	-8%	2%	22%	-2.6	0	-2.5%
O=C(CCC(=O)OCC(=O)c1ccc([N+](=O)[O-])cc1)Nc1ccccc1Cl	10	-2%	-8%	10%	.	-34	-0.4%
Oc1ccc(-c2nc(=S)[nH][nH]2)cc1	26	6%[15.4 µM]	2%	?	5.5	-13	-21%
COc1cccc(-c2nc(CS(=O)(=O)CC(=O)NCCN3CCOCC3)c(C)o2)c1	18	7%	-16%	10%	-1.4	-7	.
Cn1c(CNC(=O)C2CCCCC2)cc2ccccc21	.	3%	5%	8%	-6.0	-22	-2.8%
O=C(NCCCN1CCOCC1)c1cccc(S(=O)(=O)NCc2ccccc2)c1	-6	14%	-32%[inhibitor]	.	.	6	0.4%
COc1ccc(Nc2oc(COc3ccccc3F)nc2C#N)cc1	38	-3%	?	3%	4.7	.	0.7%
Cc1ccc(OCc2nc(-c3ccccc3)no2)c(C)c1	49	-1%	14%	-2%	-2.3	9	1.8%

Exported with each value named: part of the list above.
CCC(Sc1nc2ccccc2s1)C(=O)Nc1nnc(C)s1 (centres undefined)
  TRPML1 blocker: 13; gsp antag: -30%; gsp ag: -8%; Sfp PPTase inh: 7%; Menin-MLL FL inh: -0.4; TRPV1 potentiator: 21; ClpP mod: -1.3%

Oc1ccc(-c2nc(=S)[nH][nH]2)cc1
  TRPML1 blocker: 26; gsp antag: 6%[15.4 µM]; gsp ag: 2%; Sfp PPTase inh: ?; Menin-MLL FL inh: 5.5; TRPV1 potentiator: -13; ClpP mod: -21%

(cont.)
SMILES	TRPML1 blocker	gsp antag	gsp ag	Sfp PPTase inh	Menin-MLL FL inh	TRPV1 potentiator	ClpP mod
N/N=C(\c1ccccc1)c1cc(Cl)ccc1N	23	0%	-19%	2%	1.5	15	.
CN(Cc1ccccc1)C(=O)c1nn2cccnc2c1Cl	13	9%	-3%[15.4 µM]	-4%	1.0	-13	.
CC(=O)c1cccc(NC(=O)C(C)OC(=O)Cc2c[nH]c3ccccc23)c1 (centres undefined)	8	-20%	-38%[inhibitor]	.	.	14	-0.4%
Cc1cc(C)c(C)c(OCCn2ccnc2)c1	-4	-9%	13%[15.4 µM]	-7%	-2.3	-12	-2.0%
N#Cc1c(-c2cccs2)nc(SCc2ccc(Cl)cc2)[nH]c1=O	4	16%	73%[15.4 µM]	79µM*	2.8	24	.
Cc1cccc(S(=O)(=O)Nc2ccc(-c3cn4ccccc4n3)cc2)c1	4	-17%	-1%	-8%	2.3	0	28µM*
O=C(O)Cc1ccc(N=Nc2c(O)c(C(=O)O)cc3ccccc23)cc1	2	-5%	11%[15.4 µM]	-13%	5.2	3	2.1%
COc1ccccc1CC(NC(C)=O)C(=O)NC1CCN(C(=O)c2ccc([N+](=O)[O-])cc2)CC1 (centres undefined)	4	4%	-60%[inhibitor]	6%	-0.3	4	0.2%
COC(=O)C1OC1c1cc([N+](=O)[O-])ccc1OC (centres undefined)	5	8%	-15%	.	.	.	-3.6%
CC1Cc2cc(/C(O)=C3/C(=O)C(=O)N(CCN4CCOCC4)C3c3ccc([N+](=O)[O-])cc3)ccc2O1 (centres undefined)	3	0%	32%	-8%	-7.8	10	0.1%
O=C(COc1ccc2ccccc2c1)NNC(=O)c1cnccn1	-1	6%	-5%[15.4 µM]	10%	.	-9	0.8%
O=C(c1cccc([N+](=O)[O-])c1)N1CCN(c2ccccn2)CC1	-11	7%	?	7%	-2.3	4	-1.0%
CCC(CC)C(=O)c1c[nH]c(C(=O)NCc2cccnc2)c1	3	4%	-9%[15.4 µM]	5%	-3.4	-2	-4.0%

Full records from above. Values in the order: TRPML1 blocker | gsp antag | gsp ag | Sfp PPTase inh | Menin-MLL FL inh | TRPV1 potentiator | ClpP mod
`O=C(c1cccc([N+](=O)[O-])c1)N1CCN(c2ccccn2)CC1` reads -11 | 7% | ? | 7% | -2.3 | 4 | -1.0%
`CN(Cc1ccccc1)C(=O)c1nn2cccnc2c1Cl` reads 13 | 9% | -3%[15.4 µM] | -4% | 1.0 | -13 | .
`CC1Cc2cc(/C(O)=C3/C(=O)C(=O)N(CCN4CCOCC4)C3c3ccc([N+](=O)[O-])cc3)ccc2O1` (centres undefined) reads 3 | 0% | 32% | -8% | -7.8 | 10 | 0.1%
`COc1ccccc1CC(NC(C)=O)C(=O)NC1CCN(C(=O)c2ccc([N+](=O)[O-])cc2)CC1` (centres undefined) reads 4 | 4% | -60%[inhibitor] | 6% | -0.3 | 4 | 0.2%
`CCC(CC)C(=O)c1c[nH]c(C(=O)NCc2cccnc2)c1` reads 3 | 4% | -9%[15.4 µM] | 5% | -3.4 | -2 | -4.0%

Screening data from PubChem BioAssay.
